Bioassay records as filed in PubChem BioAssay.
KCNQ2 block: KCNQ2 potassium channel inhibitors, primary screen, cell-based, CHO-K1, FluxOR thallium flux, B-score (AID 2156); B-score at 10 µM; O88943; actives 1.1% (n = 310,000); 20 min; hits give low values; only compounds with negative scores are shown here; some inactives read as strong as hits;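 active = fluorescence ratio B-score at most minus 3 library SDs, with starting brightness B-score within 2 library SDs, cut at about -5.5 in these data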
Target sequence (O88943 whole entry, looked up): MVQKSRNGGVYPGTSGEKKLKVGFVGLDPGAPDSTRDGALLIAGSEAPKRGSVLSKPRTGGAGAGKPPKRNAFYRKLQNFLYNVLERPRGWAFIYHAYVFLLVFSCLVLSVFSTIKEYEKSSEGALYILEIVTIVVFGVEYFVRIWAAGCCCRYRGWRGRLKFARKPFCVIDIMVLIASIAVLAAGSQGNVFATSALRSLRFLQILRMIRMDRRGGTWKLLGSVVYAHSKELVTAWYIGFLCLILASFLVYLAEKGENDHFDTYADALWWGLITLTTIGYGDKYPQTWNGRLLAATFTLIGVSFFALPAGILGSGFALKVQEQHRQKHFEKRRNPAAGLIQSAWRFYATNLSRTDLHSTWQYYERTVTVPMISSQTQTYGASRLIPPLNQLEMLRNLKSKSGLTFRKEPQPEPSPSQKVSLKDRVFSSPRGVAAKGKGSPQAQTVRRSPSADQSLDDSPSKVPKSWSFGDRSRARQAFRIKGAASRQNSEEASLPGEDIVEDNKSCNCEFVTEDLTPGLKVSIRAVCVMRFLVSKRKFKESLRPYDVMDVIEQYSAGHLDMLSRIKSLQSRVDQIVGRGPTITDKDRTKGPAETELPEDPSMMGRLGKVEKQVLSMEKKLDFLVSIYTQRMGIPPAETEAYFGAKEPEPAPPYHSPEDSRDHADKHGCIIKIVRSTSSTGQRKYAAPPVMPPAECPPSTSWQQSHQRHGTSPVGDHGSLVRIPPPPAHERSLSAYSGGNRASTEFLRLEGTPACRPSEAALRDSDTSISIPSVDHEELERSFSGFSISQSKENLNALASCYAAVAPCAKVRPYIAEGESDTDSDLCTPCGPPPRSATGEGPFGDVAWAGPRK
KCNQ2 block baseline: also measured in KCNQ2 block; calls as there; B-score; measured here: initial fluorescence intensity artifact check;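 brightness before thallium and not channel activity; 0 = typical well and far values either way flag optical interference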
Active calls of the source: *. These rows are one share of the data; the hit share may differ from the screen's.

COc1ccc(CCNC(=O)c2cc3cccc(OC)c3oc2=O)cc1OC was read as KCNQ2 block inactive and KCNQ2 block baseline -1.1.
O=C(Nc1ccccc1)c1sc2cc(C(F)(F)F)cnc2c1-c1cccs1 was read as KCNQ2 block inactive and KCNQ2 block baseline 1.5.
Cc1ccc([N+](=O)[O-])c(OCCCN2CCC(Cc3ccccc3)CC2)c1 was read as KCNQ2 block inactive and KCNQ2 block baseline 0.11.
`Cc1cccc(NC(=S)NC2CC3CCCC(C2)N3CC(C)C)c1C` (stereo unspecified) gave KCNQ2 block inactive and KCNQ2 block baseline 1.4.
`CCOc1ccc(N2C(=O)CC(NCc3ccc(F)cc3)C2=O)cc1` (stereo unspecified) gave KCNQ2 block inactive and KCNQ2 block baseline 0.02.
`COCCN(C(=S)Nc1ccc(OC)c(Cl)c1)C1CCN(C(C)C)CC1` gave KCNQ2 block inactive and KCNQ2 block baseline -0.9.
O=Cc1cn(-c2ccccc2)nc1-c1cccnc1 was read as KCNQ2 block inactive and KCNQ2 block baseline -2.1.
`CCOC(=O)C1=C(C)NC(=S)N(C(C)=O)C1c1ccc(Cl)cc1` (stereo unspecified) gave KCNQ2 block inactive and KCNQ2 block baseline 0.15.
COc1ccc(CN2CCCC(C(=O)c3ccc(Cl)cc3)C2)cc1Cn1cncn1 (stereo unspecified) was read as KCNQ2 block inactive and KCNQ2 block baseline 0.42.
`CN1c2ccccc2C(C)(C)C12C=Nc1c(cc(N3CCOCC3)c3ccccc13)O2` (stereo unspecified) gave KCNQ2 block inactive and KCNQ2 block baseline -0.78.
`CCN(CC(=O)Nc1cc(Cl)ccc1C)C(=O)CSCc1ccc(C)cc1` gave KCNQ2 block inactive and KCNQ2 block baseline -1.4.
CC(C)(C)n1nnnc1C(c1cccc(C(F)(F)F)c1)N1CCC(O)CC1 (stereo unspecified) was read as KCNQ2 block inactive and KCNQ2 block baseline 1.3.
`Cc1cc(N2CCN(C(=O)c3cccs3)CC2)c(F)cc1[N+](=O)[O-]` gave KCNQ2 block inactive and KCNQ2 block baseline -0.79.
`COc1cccc(N=C2SC(CC(=O)Nc3ccccc3)C(=O)N2Cc2ccccn2)c1` (stereo unspecified) gave KCNQ2 block inactive and KCNQ2 block baseline -2.9.
Screening CC1CN(C2=NC(=O)/C(=C3/C(=O)N(Cc4ccc(F)cc4)c4ccccc43)S2)CC(C)O1 (stereo unspecified) returned KCNQ2 block inactive and KCNQ2 block baseline -0.38.
`CCOC(=O)c1c(C(=O)OCC)c(C)n(CCc2ccccc2)c1C` gave KCNQ2 block -5.8* and KCNQ2 block baseline -0.59*.
COC(=O)N1CCN(S(=O)(=O)c2ccc(F)cc2)CC1 was read as KCNQ2 block inactive and KCNQ2 block baseline -0.08.
Cc1ccc(OCCCN2CCCC2)c(C)c1 was read as KCNQ2 block inactive and KCNQ2 block baseline -0.18.
`CC(=O)c1nn(-c2cccc(Br)c2)cc1C(=O)c1ccc(Cl)cc1` gave KCNQ2 block inactive and KCNQ2 block baseline 1.7.
Screening COC(=O)CNc1c(-c2ccccc2)nc2ccc(Br)cn12 returned KCNQ2 block inactive and KCNQ2 block baseline 0.43.
Screening O=C(Nc1nc2nccc(-c3ccccc3)n2n1)c1ccccc1 returned KCNQ2 block inactive and KCNQ2 block baseline -0.76.
`O=C1C(Cc2ccccc2)S/C(=N/N=C/c2ccco2)N1c1ccccc1` (stereo unspecified) gave KCNQ2 block inactive and KCNQ2 block baseline 1.6.
Screening C=CCn1c(=O)c(C(=O)NCc2ccccc2Cl)c(O)c2ccccc21 returned KCNQ2 block -7.1* and KCNQ2 block baseline 1.3*.
Screening C=CCc1cc(OC)ccc1OCCOCCN1CCc2ccccc2C1 returned KCNQ2 block inactive and KCNQ2 block baseline -0.02.
`O=C(Cn1c(=O)n(-c2ccccc2)c(=O)c2sccc21)N1CCCC1` gave KCNQ2 block inactive and KCNQ2 block baseline 1.4.
COc1ccc([N+](=O)[O-])cc1NC(=O)C(C)OC(=O)/C=C/c1ccco1 (stereo unspecified) was read as KCNQ2 block inactive and KCNQ2 block baseline -0.49.
CCC1(C)CC(CCNS(=O)(=O)c2ccc(C)cc2)(c2ccc(C)cc2)CCO1 (stereo unspecified) was read as KCNQ2 block inactive and KCNQ2 block baseline 2.2.
Screening COc1ccc(Br)c(OC)c1C(=O)NC(=O)Nc1nc(C)cc(C)n1 returned KCNQ2 block inactive and KCNQ2 block baseline -0.3.
CN1C(=O)c2ccc(N3CCCC3)cc2C1=O was read as KCNQ2 block inactive and KCNQ2 block baseline -0.77.
CCN(CC)S(=O)(=O)c1ccc(OC)c(NS(=O)(=O)c2ccc(F)cc2)c1 was read as KCNQ2 block inactive and KCNQ2 block baseline -0.91.
CCOC(=O)C(c1ccccc1)C(Nc1ccc(F)cc1)c1ccccn1 (stereo unspecified) was read as KCNQ2 block inactive and KCNQ2 block baseline -1.2.
For O=C(CCl)N(c1ccccc1)C1CCS(=O)(=O)C1 (stereo unspecified) the results were KCNQ2 block inactive and KCNQ2 block baseline 1.6.
CSc1cccc(NC(=O)CCCOc2ccccc2)c1 was read as KCNQ2 block inactive and KCNQ2 block baseline -0.03.
Screening C=CCOc1ccc(C2C(C#N)=C(N)N(Nc3ccccc3)C3=C2C(=O)CCC3)cc1OC (stereo unspecified) returned KCNQ2 block inactive and KCNQ2 block baseline 0.63.
`Cc1ccccc1CC1(CO)CCCN(C(=O)CCCN2CCCCC2=O)C1` (stereo unspecified) gave KCNQ2 block inactive and KCNQ2 block baseline 0.11.
`CC(C)n1c(/C=C/c2ccccc2)nc2ccccc21` gave KCNQ2 block inactive and KCNQ2 block baseline -0.87.
`CNc1cc(C)c(C#N)c2nc3ccccc3n12` gave KCNQ2 block inactive and KCNQ2 block baseline 0.05.
`Cc1ccccc1-n1nc(C)c2cc(C(=O)NCc3cccnc3)sc21` gave KCNQ2 block inactive and KCNQ2 block baseline 0.37.
Screening CCC1=C(OC(=O)N(CC)CC)N2C(=O)OC(=NCc3ccccc3)[C@]2(C)[C@H]2C1=CC[C@H]1C(=O)N(c3ccccc3)C(=O)[C@H]12 returned KCNQ2 block inactive and KCNQ2 block baseline -2.5.
COc1cc(/C=C(\C#N)C(=O)NC2CCCCC2)ccc1OCc1ccc(C(=O)O)cc1 was read as KCNQ2 block inactive and KCNQ2 block baseline -0.96.

Quoted from the listing (13 entries):
Screening COc1ccc(Br)c(OC)c1C(=O)NC(=O)Nc1nc(C)cc(C)n1 returned KCNQ2 block inactive and KCNQ2 block baseline -0.3.
CN1C(=O)c2ccc(N3CCCC3)cc2C1=O was read as KCNQ2 block inactive and KCNQ2 block baseline -0.77.
CCN(CC)S(=O)(=O)c1ccc(OC)c(NS(=O)(=O)c2ccc(F)cc2)c1 was read as KCNQ2 block inactive and KCNQ2 block baseline -0.91.
CCOC(=O)C(c1ccccc1)C(Nc1ccc(F)cc1)c1ccccn1 (stereo unspecified) was read as KCNQ2 block inactive and KCNQ2 block baseline -1.2.
For O=C(CCl)N(c1ccccc1)C1CCS(=O)(=O)C1 (stereo unspecified) the results were KCNQ2 block inactive and KCNQ2 block baseline 1.6.
CSc1cccc(NC(=O)CCCOc2ccccc2)c1 was read as KCNQ2 block inactive and KCNQ2 block baseline -0.03.
Screening C=CCOc1ccc(C2C(C#N)=C(N)N(Nc3ccccc3)C3=C2C(=O)CCC3)cc1OC (stereo unspecified) returned KCNQ2 block inactive and KCNQ2 block baseline 0.63.
`Cc1ccccc1CC1(CO)CCCN(C(=O)CCCN2CCCCC2=O)C1` (stereo unspecified) gave KCNQ2 block inactive and KCNQ2 block baseline 0.11.
`CC(C)n1c(/C=C/c2ccccc2)nc2ccccc21` gave KCNQ2 block inactive and KCNQ2 block baseline -0.87.
`CNc1cc(C)c(C#N)c2nc3ccccc3n12` gave KCNQ2 block inactive and KCNQ2 block baseline 0.05.
`Cc1ccccc1-n1nc(C)c2cc(C(=O)NCc3cccnc3)sc21` gave KCNQ2 block inactive and KCNQ2 block baseline 0.37.
Screening CCC1=C(OC(=O)N(CC)CC)N2C(=O)OC(=NCc3ccccc3)[C@]2(C)[C@H]2C1=CC[C@H]1C(=O)N(c3ccccc3)C(=O)[C@H]12 returned KCNQ2 block inactive and KCNQ2 block baseline -2.5.
COc1cc(/C=C(\C#N)C(=O)NC2CCCCC2)ccc1OCc1ccc(C(=O)O)cc1 was read as KCNQ2 block inactive and KCNQ2 block baseline -0.96.

Additional records
`O=c1[nH]c(CSc2nc3ccccc3o2)nc2c1cnn2-c1ccccc1` gave KCNQ2 block inactive and KCNQ2 block baseline -0.39.
`COc1ccc(NC(=O)CN(C)Cc2c(F)cccc2Cl)cc1S(=O)(=O)N1CCCCC1` gave KCNQ2 block inactive and KCNQ2 block baseline -0.44.
For CCC1CCCCN1C(=O)CCCOc1ccccc1 (stereo unspecified) the results were KCNQ2 block inactive and KCNQ2 block baseline 0.35.
COc1ccc(N(C)C(=O)c2ccc3nc(-c4ccccc4)c(-c4ccccc4)nc3c2)cc1 was read as KCNQ2 block inactive and KCNQ2 block baseline -0.27.
`C=CCSc1[nH]c(=O)cc(C)c1C(N)=O` gave KCNQ2 block inactive and KCNQ2 block baseline 1.5.
Screening Cc1ccc(C(=O)N2CCN(S(=O)(=O)c3ccccc3[N+](=O)[O-])CC2)o1 returned KCNQ2 block inactive and KCNQ2 block baseline 0.68.
`CCC1(CC)NC(=O)N(CC(=O)N2CCN(S(=O)(=O)c3cccc(F)c3)CC2)C1=O` gave KCNQ2 block inactive and KCNQ2 block baseline -1.6.
`O=c1ccc2cc(S(=O)(=O)N3CCN(c4ccc(Cl)cc4)CC3)ccc2o1` gave KCNQ2 block inactive and KCNQ2 block baseline -0.02.
`Cc1ccc(NC2CCCN(C(=O)CSc3ccncc3)C2)cc1C` (stereo unspecified) gave KCNQ2 block inactive and KCNQ2 block baseline -2.7.
Cc1csc2ncc(C(=O)Nc3cccc(C(F)(F)F)c3)c(=O)n12 was read as KCNQ2 block inactive and KCNQ2 block baseline -0.06.
For OC1CCCN(c2c3c(nc4cc(-c5cccc(F)c5)nn24)CCCC3)C1 (stereo unspecified) the results were KCNQ2 block inactive and KCNQ2 block baseline -1.9.
For CC(C)(C)NC(=O)C(c1ccc(O)cc1)N(C(=O)Cn1nnc(-c2ccc(F)cc2)n1)c1ccccc1F (stereo unspecified) the results were KCNQ2 block inactive and KCNQ2 block baseline 0.48.
COCC1CCCN(C(=O)c2ccc(OC3CCN(Cc4ccccn4)CC3)cc2)C1 (stereo unspecified) was read as KCNQ2 block inactive and KCNQ2 block baseline -0.24.
For CCN(CC(=O)Nc1ccccc1OC)CC(=O)Nc1sccc1C#N the results were KCNQ2 block inactive and KCNQ2 block baseline -0.02.
CN1CCN(C(=O)C2CCN(S(=O)(=O)c3ccc(F)cc3)CC2)CC1 was read as KCNQ2 block inactive and KCNQ2 block baseline -2.6.
For O=C(N/N=C/c1ccccc1Cl)C1CC1 the results were KCNQ2 block inactive and KCNQ2 block baseline 0.46.
For COc1ccc(OC)c(S(=O)(=O)Nc2c(C)n(C)n(-c3ccccc3)c2=O)c1 the results were KCNQ2 block inactive and KCNQ2 block baseline 2.4.
For COc1cc2c(cc1OC)CN(C(=O)COc1ccccc1[N+](=O)[O-])CC2 the results were KCNQ2 block inactive and KCNQ2 block baseline 0.4.
Screening O=C1[C@H]2[C@@H](c3ccc(F)cc3)N3C(=O)N(c4cccc(F)c4)C(=O)[C@@]3(Cc3ccc(Cl)cc3)[C@H]2C(=O)N1C1CCCCC1 returned KCNQ2 block inactive and KCNQ2 block baseline 0.45.
Screening CCN1CCCC1CN(Cc1cc2ccc(C)cc2[nH]c1=O)C(=S)Nc1ccccc1C(=O)OC (stereo unspecified) returned KCNQ2 block inactive and KCNQ2 block baseline -0.1.
C=CCn1cnc2c(sc3nc(C)cc(C)c32)c1=O was read as KCNQ2 block inactive and KCNQ2 block baseline -0.04.
For COCCn1c(SCc2nc3scc(-c4ccc(Cl)cc4)c3c(=O)[nH]2)nnc1-c1cccc(C)c1 the results were KCNQ2 block inactive and KCNQ2 block baseline 0.16.
`Cc1cccc(CS(=O)(=O)c2nnc([C@H](Cc3ccccc3)NC(=O)OC(C)(C)C)o2)c1` gave KCNQ2 block inactive and KCNQ2 block baseline -2.
Screening CCOc1cc(/C=C/C(=O)c2ccc(C)cc2)ccc1OCC(=O)N(C)C returned KCNQ2 block inactive and KCNQ2 block baseline 0.06.
For Cc1ccc(-n2cc(CNCCN3CCOC3=O)c(-c3ccc(F)cc3)n2)cc1 the results were KCNQ2 block inactive and KCNQ2 block baseline 0.21.
`O=c1[nH]c(=O)c2nnc(N/N=C/c3ccccc3F)nc2[nH]1` gave KCNQ2 block inactive and KCNQ2 block baseline -0.01.
Screening O=C(CCCN1C(=O)c2cccnc2C1=O)Nc1ccc(Br)cc1 returned KCNQ2 block inactive and KCNQ2 block baseline -0.19.
Screening O=C(COc1ccc(S(=O)(=O)NCc2ccccc2)cc1)NCc1cccnc1 returned KCNQ2 block inactive and KCNQ2 block baseline -1.3.
`CC(C)c1ccc(S(=O)(=O)N2CCC(C(=O)NCC3(N(C)C)CCCCC3)CC2)cc1` gave KCNQ2 block inactive and KCNQ2 block baseline -2.2.
Screening COc1nc(Nc2nc3ccccc3c(=O)[nH]2)nc2ccc(C)cc12 returned KCNQ2 block inactive and KCNQ2 block baseline -0.08.
CCOc1ccc(Nc2nc(N3CCCCC3)nc(N3CCCCC3)n2)cc1 was read as KCNQ2 block inactive and KCNQ2 block baseline -0.73.
For CCCC(c1nnnn1CC1CCCO1)N1CCN(c2nc3ccccc3s2)CC1 (stereo unspecified) the results were KCNQ2 block inactive and KCNQ2 block baseline 2.7.
Screening CCN1CNC(=S)N(c2ccccc2C)C1 returned KCNQ2 block inactive and KCNQ2 block baseline -0.27.
`CCOC(=O)N1CCN(C(=O)CN(c2ccccc2OC)S(=O)(=O)c2ccc(C)cc2)CC1` gave KCNQ2 block inactive and KCNQ2 block baseline 0.31.
For Cc1cccc(C)c1OCCCN1CCCC1 the results were KCNQ2 block inactive and KCNQ2 block baseline 0.25.
For COc1ccc(CC(=O)NCc2ccccc2)cc1OC the results were KCNQ2 block inactive and KCNQ2 block baseline 1.7.
